Source: PubChem BioAssay
PABP polyA inh: PABP poly(A) RNA binding inhibitors, primary screen, biochemical, fluorescence polarization, uHTS; inhibition, % at 35 µM; Polyadenylate-binding protein 1 (Homo sapiens), P11940; actives 1% (n = 290,000);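 active means 50% or more with normal probe brightness, or confirmed in later tests; about a fifth of its hits are not listed in these tables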;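 further: calls also rest on retests at 20 µM and on dose response follow-up; controls were probe without protein and protein plus probe with vehicle; some compounds called inactive have numbers as strong as hits; many hits fall short of the cut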
Target sequence (P11940 whole entry, looked up): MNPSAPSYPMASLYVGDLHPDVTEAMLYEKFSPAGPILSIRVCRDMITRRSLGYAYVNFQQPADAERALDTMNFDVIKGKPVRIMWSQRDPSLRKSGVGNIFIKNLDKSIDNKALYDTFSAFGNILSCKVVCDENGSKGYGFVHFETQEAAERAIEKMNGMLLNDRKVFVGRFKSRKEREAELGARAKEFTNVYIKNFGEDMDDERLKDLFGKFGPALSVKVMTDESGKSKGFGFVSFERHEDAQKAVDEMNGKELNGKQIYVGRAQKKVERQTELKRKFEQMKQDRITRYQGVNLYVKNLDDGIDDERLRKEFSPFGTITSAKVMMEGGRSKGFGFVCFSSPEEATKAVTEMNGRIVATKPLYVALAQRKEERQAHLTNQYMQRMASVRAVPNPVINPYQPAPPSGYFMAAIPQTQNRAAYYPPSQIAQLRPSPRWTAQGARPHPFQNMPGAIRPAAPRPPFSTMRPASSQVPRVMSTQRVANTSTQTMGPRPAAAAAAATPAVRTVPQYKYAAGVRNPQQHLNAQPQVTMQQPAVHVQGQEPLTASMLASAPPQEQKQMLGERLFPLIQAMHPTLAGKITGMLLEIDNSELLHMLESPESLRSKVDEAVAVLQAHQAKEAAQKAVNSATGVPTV
MT1-MMP act inh: blockers of MT1-MMP proenzyme processing, primary screen, HT1080 RFP-PRO-GFP cells, GFP/RFP fluorescence | GFP/RFP ratio change, % at 20 µM | Matrix metalloproteinase-14 (Homo sapiens), P50281 | GFP/RFP ratio fluorescence, overnight; percent of plate control window, DMSO zero | actives 0.061% (n = 360,000);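 active means GFP/RFP ratio change of at least 30% with cell ATP level not reduced by more than half and red fluorescence within 50% of control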; further: strong numbers were not always called active
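Compound: 20 µM single dose, 1% DMSO / System: HT1080 RFP-PRO-GFP cells / Controls: DMSO and RFP-L50D-GFP cell wells / Read-out basis: GFP/RFP fluorescence ratio / Schedule: overnight compound exposure at 37 °C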
CSC inhib: cancer stem cell viability inhibitors, primary screen, luminescence | cancer stem cell-like cells viability | inhibition, % at 7.5 µM | actives 1.1% (n = 300,000) | AID 2717, 2010;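 active means mean at 75% or more and at least half the replicates too; tested in HMLE shEcad cells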;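 further: 0% = median of negative and 100% = median of positive control wells; the first replicate is given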
eIF4H FP inh: human eIF4H binding inhibitors, primary screen, translation initiation inhibitor project, biochemical, uHTS, fluorescence polarization; Eukaryotic translation initiation factor 4H (Homo sapiens), Q15056; eIF4H fluorescence polarization binding assay; inhibition, % at 35 µM; actives 0.94% (n = 290,000); AID 2012, 2009;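 active means 50% or more with normal probe brightness, or confirmed in later tests; about a fifth of its hits are not listed in these tables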;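 further: calls also rest on retests at 20 µM and on dose response follow-up; 0% = protein and probe with vehicle and 100% = probe without protein; strong numbers were not always called active; many hits fall short of the cut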
HIV Env fusion: inhibitors of HIV-1 Env-driven cell-cell fusion, primary screen, HeLa-JRFL effector, CEM21 target cells, luciferase; inhibition, % at 12.3 µM; actives 1.1% (n = 360,000);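 active means mean replicate inhibition score of at least 50 and every replicate individually at or above 50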;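 further: 0% = plate neutral controls and 100% = maraviroc near 300 nM; one replicate is shown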
Rce1 inhib: yeast Rce1p protease inhibitors, primary screen, biochemical, fluorescence, cell-free homogeneous | calls only | actives 0.27% (n = 290,000) | AID 2563, 2010 | CAAX prenyl protease 2 (Saccharomyces cerevisiae (strain ATCC 204508 / S288c)), Q03530 | yeast membranes, quenched prenylated peptide cleavage fluorescence;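 active means fall in fluorescence gain of 50% or more versus controls, with final raw signal at or below 3038400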;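 further: plate controls were neutral control wells for no effect and wells lacking membranes for full effect; tested at 10 µM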
Yeast UUG start: modulators of yeast start codon fidelity, primary screen, whole organism, S. cerevisiae, single point, plate reader | activity score, % at 18.7 µM | S. cerevisiae UUG-firefly luciferase reporter, luminescence/redox ratio | AID 602363, 2012 | actives 0.13% (n = 350,000);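 active means replicate mean at a twofold rise or more, about +100% in these data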;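 further: firefly luciferase made from a UUG start codon reports start codon fidelity; reporter light over untreated wells divided by growth signal over untreated wells; some hits fall short of that in this replicate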
MT1-MMP act inh RFP: second read-out of MT1-MMP act inh, no call of its own (marks repeat the call); RFP signal change, %; measured here: RFP expression control read;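 0 = vehicle wells; hits needed this value within 50% of zero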
* marks the source's active call; other numbers are inactive results; i = inactive; x = no result given.

SMILES	Yeast UUG start	MT1-MMP act inh	eIF4H FP inh	Rce1 inhib	HIV Env fusion	PABP polyA inh	CSC inhib	MT1-MMP act inh RFP
CC1=NNC(=O)C1CC(=O)N/N=C/c1cccs1 (stereo not given)	2	10	-12	i	13	15	0	3
N#Cc1ccc(CSc2ncnc3c2cnn3Cc2ccccc2)cc1	-14	-8	1	i	x	-3	12	-5
CCCCCCn1c(N(CC)CC)nc2c1c(=O)[nH]c(=O)n2C	8	4	6	i	x	-1	-8	-7
NC(=O)c1nc(-c2ccco2)nc2c1[nH]c(=O)n2-c1ccc(Cl)c(Cl)c1	-4	0	31	i	2	-4	1	-1
CN(CCC#N)S(=O)(=O)c1ccc2c(c1)c(=O)n(C)c(=O)n2C	-13	4	8	i	-47	2	-5	6
O=C(Nc1ccc2c(c1)OCCO2)c1cccc(Br)c1	-26	2	0	i	-80	0	-8	0
CCn1nc(C(=O)Nc2ccc(Cl)c(S(=O)(=O)N3CCOCC3)c2)c2ccccc2c1=O	1	1	x	x	-1	x	x	3
O=C(CCCCCN1C(=O)c2ccccc2C1=O)Nc1ccccc1F	x	5	-4	i	-7	-9	-11	3
Cc1ccc(C)c(NC(=S)N2CCC(NC(=O)c3ccc(F)cc3)CC2)c1	-26	2	-10	i	-8	-1	2	-2
O=C(c1ccc(Cl)cc1Cl)N1CCc2ccccc21	14	2	-2	x	1	4	13	-2
COC(=O)c1ccc(/C=N/NC(=O)CNc2cccc(C)c2)cc1	x	4	-1	x	-6	-6	1	6
COc1ccc(S(N)(=O)=O)cc1C(=O)N1CCCC1	x	4	-2	i	13	-2	0	4
Cc1ccc(-c2noc(CSc3nnc(-c4ccccc4)n3C)n2)cc1	-9	3	-6	i	37	-4	-7	1
Cc1ccc(NC(=O)N2Cc3ccccc3CC2C(=O)NC(C)(C)C)cc1 (stereo not given)	-10	-3	-6	i	x	-1	-2	2
COc1ccc(Cl)cc1NC(=O)CSc1nnc(CNC(=O)c2cccs2)o1	-8	1	-6	i	9	6	-7	4
CC(C)Cc1ccc(CN2CCCC(NC(=O)CCN3CCCO3)C2)cc1 (stereo not given)	-7	2	-5	i	2	10	4	-1
O=C(CSc1ccccc1)Nc1ccc(S(=O)(=O)NCC2CCCO2)cc1 (stereo not given)	-12	5	-10	i	x	1	-4	1
O=C(Nc1nncs1)c1cccc(S(=O)(=O)N2CCOCC2)c1	-16	2	6	i	-36	9	0	3
C[C@@H](CC#N)CN1CC[C@H](C(C)(C)C)CCC1=O	-19	-5	-3	i	-35	-4	-15	1
CCn1c(SCC(=O)N(C)CC(=O)Nc2cccc(OC)c2)nnc1-c1ccco1	-12	-3	x	i	-12	x	-5	2

Entries of single compounds, looked up by structure. Order of values: Yeast UUG start | MT1-MMP act inh | eIF4H FP inh | Rce1 inhib | HIV Env fusion | PABP polyA inh | CSC inhib | MT1-MMP act inh RFP
CC(C)Cc1ccc(CN2CCCC(NC(=O)CCN3CCCO3)C2)cc1 (stereo not given) is entered as -7 | 2 | -5 | i | 2 | 10 | 4 | -1
COC(=O)c1ccc(/C=N/NC(=O)CNc2cccc(C)c2)cc1 is entered as x | 4 | -1 | x | -6 | -6 | 1 | 6
Cc1ccc(-c2noc(CSc3nnc(-c4ccccc4)n3C)n2)cc1 is entered as -9 | 3 | -6 | i | 37 | -4 | -7 | 1

Next part:
SMILES	Yeast UUG start	MT1-MMP act inh	eIF4H FP inh	Rce1 inhib	HIV Env fusion	PABP polyA inh	CSC inhib	MT1-MMP act inh RFP
Cn1c(=O)c(=O)n(C)c2cc(S(=O)(=O)N3CCN(c4ccccc4F)CC3)ccc21	-16	3	2	i	14	10	-7	-8
COC(=O)c1c(NC(=O)CN2CCN(c3ccccc3OC)CC2)c2cc(C)ccc2n1C	-17	-1	2	i	-9	13	-4	-5
O=S(=O)(CC(O)COc1ccccc1Cl)c1ccccc1 (stereo not given)	-10	0	1	i	x	2	-9	0
CCN(CC)S(=O)(=O)c1ccc(C(C)NC(=O)Cc2c[nH]c3ccccc23)cc1 (stereo not given)	-6	-1	7	i	4	-3	-8	-3
Cc1cc(=O)n2c(n1)NC(=NCc1ccccc1)NC2c1ccccc1 (stereo not given)	-19	0	-8	i	6	2	-5	-1
CCCC(=O)Nc1nnc(SCC(=O)Nc2nc(C)cs2)s1	-15	3	-12	i	-11	5	-3	6
COc1ccc(CN(C(=O)c2ccc(C)cc2)c2cccc(N)c2)cc1	-22	-7	x	i	7	x	-21	4
CCC(C)[C@@H](N)C(=O)N/N=C/c1cccc2nccnc12 (stereo not given in full)	x	x	0	i	x	7	-12	x
COc1ccccc1CCC(=O)Nc1ccc2c(c1)c(=O)n(C)n2C	4	-1	x	x	-16	x	x	5
Cc1cccc(NCC(=O)c2c(N)n(C)c(=O)n(C)c2=O)c1C	x	1	-3	i	-1	2	6	-3
Nc1cc(N)c2c(c1)C(=O)c1ccccc1-2	-19	6	x	x	-25	x	x	-3
CCCCn1c(=O)nc2n(-c3ccccc3)c3ccccc3cc-2c1=O	-6	-2	2	i	-7	10	6	-3
CCOC(=O)c1ccc(NC(=O)c2nc[nH]c2C(=O)NC[C@H](C)O)cc1	-8	0	x	x	-2	x	x	0
N=c1n(CCO)c2ccccc2n1CCN1CCCCC1	x	-2	-4	i	-8	8	-17	1
COc1cc(O)c(C(CCN2CCCCC2)c2ccc3c(c2)OCO3)c(OC)c1 (stereo not given)	-9	1	0	i	-51	-1	-12	0
O=C(O)CCC(=O)N1CCc2cc(S(=O)(=O)NC3CCCc4ccccc43)ccc21 (stereo not given)	6	-4	1	i	-10	5	-4	0
COc1ccc(/C=C(/NC(=O)c2ccccc2)C(=O)N/N=C/c2ccncc2)cc1	x	4	1	x	10	-1	3	7
COc1cccc(S(=O)(=O)Nc2cccnc2)c1	-10	0	4	i	-59	9	-1	1
Cc1ccc(C)c(OCCn2cc(/C=C(\C#N)C(=O)NCC3CCCO3)c3ccccc32)c1 (stereo not given)	-19	-1	-16	i	15	-6	5	-5
COC(=O)c1ccccc1NC(=O)c1cncc(Br)c1	-11	1	3	i	-19	1	-5	1
O=C1NCCN(CC2CCN(CCC3CCCC3)CC2)C1=O	-16	4	x	x	-50	x	x	8
CNC1=C(N(C(C)=O)c2ccc(Br)cc2)C(=O)c2ccccc2C1=O	x	-12	6	i	x	-7	105*	-30
Cc1nccnc1Sc1ccccc1	10	2	-2	i	4	4	-7	9
O=C(CN1C(=O)S/C(=C\c2cccs2)C1=O)Nc1ccc(C(=O)O)c(O)c1	9	3	2	i	-12	8	-5	2
CN(Cc1cccnc1)C(=O)c1cc(COc2ccc3ncccc3c2)on1	x	5	-7	i	43	-5	-10	-29
Cc1ccc(C(=O)NC2CC2)cc1S(=O)(=O)N1CCOCC1	-9	3	x	x	x	x	-22	4
Cc1ccc(CNC(=O)c2ccccc2NC(=O)CN2CCN(C)CC2)cc1	-10	3	9	x	-9	3	-2	0
CCC[C@H]1CN(c2ccccc2)C(=O)[C@@H]1CC(=O)Nc1ccccc1	-2	4	x	x	-13	x	x	2
Cc1ccc(N(C(=O)c2csnn2)C(C(=O)NC2CCCC2)c2cccnc2)c(C)c1 (stereo not given)	-9	0	1	i	7	11	-7	1
COC(=O)c1ccc(C2/C(=C(\O)c3ccc4c(c3)OCCO4)C(=O)C(=O)N2CCCN(C)C)cc1 (stereo not given)	-1	4	-9	i	x	0	-10	-2
Cn1c(Sc2ccc(C(=O)O)cc2[N+](=O)[O-])nnc1-c1ccccc1	x	0	-4	i	17	2	-3	2
Cc1cc(N2CCN(C)CC2)nc(=S)[nH]1	x	2	-8	i	13	24	-11	7
Cc1cc(OCC(=O)N2CCc3ccccc3C2)c2c(-c3ccccc3)cc(=O)oc2c1	-4	-15	8	i	-56	1	7	-10
O=C(COc1ccc(Br)cc1)NCCCNC(=O)c1ccncc1	-8	-2	-3	i	-217	7	-12	-1
COc1ccc(NC(=O)C2(C)Cc3c(-c4ccc(C(N)=O)cc4)ccnc3O2)cn1 (stereo not given)	-9	-3	x	x	2	x	x	5
Cc1cc(C)n(-c2c(F)c(F)c(CN3CCOCC3)c(F)c2F)n1	-9	2	-7	i	x	2	-9	1
Nc1nn(-c2ccccc2Cl)cc1-c1nn[nH]n1	x	2	-9	i	-11	-12	11	-1
COc1cc(OC)c(OC)cc1CCC(C)NCCC(c1ccccc1)c1ccccc1 (stereo not given)	-12	-6	-2	i	81*	-15	16	-7
Cc1ccc(C(=O)OCC(=O)N2C(C)CCCC2C)s1 (stereo not given)	-7	3	x	x	x	x	-3	3
CS(=O)(=O)N1CCN(c2ccccc2NC(=S)NC(=O)c2ccco2)CC1	-5	-7	-14	i	-18	-4	4	-5
COc1cc(/C=N/NC(N)=O)cc([N+](=O)[O-])c1O	x	9	21	i	-82	15	9	2
O=C(O)CCc1nc(-c2ccccc2)c(-c2ccccc2)o1	x	x	1	i	x	12	-3	x
CC(c1ccccc1)n1c(Cn2ncc3ccccc3c2=O)n[nH]c1=S (stereo not given)	-27	1	-9	i	21	-2	-6	-10
CCCN(CC1CC1)C(=O)CCc1nnc(C(OC)c2ccccc2)o1 (stereo not given)	x	0	0	i	-5	-9	1	2
CC(C)C(=O)NC(=S)Nc1ccc(S(=O)(=O)N2CCN(C)CC2)cc1	x	1	8	i	-18	8	4	3
COc1ccc(OC(=O)COc2ccc(Cl)cc2)cc1	-27	9	-9	i	8	-7	-3	-4
O=[N+]([O-])c1ccc2[nH]c(O)c(N=Nc3ccc(F)cc3)c2c1	-11	-20	9	i	-18	25	1	2
COc1ccc(C(=O)Nc2ccccc2C(=O)NC(Cc2ccc(O)cc2)C(=O)NNC(=O)c2ccccc2Cl)cc1 (stereo not given)	-1	-4	2	i	x	-12	3	-4
O=C(COc1ccc(Br)cc1Br)NC(=S)N1CCCc2ccccc21	x	7	8	i	x	48	x	0
CC(=O)Nc1ccc(NC(=O)COC(=O)/C=C/c2ccc3c(c2)OCO3)cc1	-4	2	x	x	-18	x	x	-1

The list continues.
SMILES	Yeast UUG start	MT1-MMP act inh	eIF4H FP inh	Rce1 inhib	HIV Env fusion	PABP polyA inh	CSC inhib	MT1-MMP act inh RFP
O=C(CCc1nc2ccccc2c(=O)[nH]1)Nc1ccc(Cl)c(Cl)c1	-15	0	-2	i	21	0	27	-1
Clc1ccc(C2=CSC3=NCCN23)cc1Cl	3	5	4	i	x	5	18	3
CC(=O)C1=C(O)C(=O)N(c2ccc(O)cc2)C1c1cccc([N+](=O)[O-])c1 (stereo not given)	-4	1	2	i	9	1	-4	3
CC(=O)NC1=NN(C(C)=O)C(C)(c2ccccn2)S1 (stereo not given)	x	-2	3	i	9	3	-2	2
N#CCn1cnc2c(oc3ccccc32)c1=O	-5	1	-5	i	x	-2	-14	1
Cc1nnc(NC(=O)CSc2nccn2C)s1	5	-1	2	i	-62	-21	-10	0
Cc1nnc2c3ccccc3c(-c3ccccc3)nn12	-16	16	x	i	-22	x	-18	9
Cc1ccc(-n2nnnc2-c2cccs2)cc1[N+](=O)[O-]	x	3	x	i	21	x	-6	-2
CCN1/C(=C/c2cc[n+](C)cc2)C=Cc2cc(C)ccc21	x	-10	4	x	52	4	20	-13
NC(=O)c1ccc(NC(=O)COC(=O)C2CCN(S(=O)(=O)c3cccs3)CC2)cc1	-4	-1	x	x	x	x	-9	1
